Screening results (PubChem BioAssay)
Mtb H37Rv = M. tuberculosis H37Rv growth inhibitors, H37Rv strain (AID 1626); inhibition, % at 10 µM; hits with a dose series show IC50 in µM; 220,000 compounds, 0.95% hits; M. tuberculosis H37Rv growth inhibition; higher % means a stronger effect;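 active means confirmed in a dose series; inconclusive means inhibition above 80% but not taken into the dose series; inactive means below 80% or under 30% at every dose of the series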;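 further: bacteria incubated seven days before Alamar blue readout; 0% = bacteria only wells and 100% = bacteria with antibiotic wells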
Mtb bLac sens = beta-lactam sensitization of Mtb H37Rv. M. tuberculosis H37Rv growth with meropenem, percent inhibition; hits of this screen are not shown here. inhibition, % at 25 µM. 330,000 compounds, 0.27% hits;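 active means about 74% or more and at least 40 points above the plate without the antibiotic, then above 30% in a dose series; inconclusive means first-round hits that could not be retested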;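 further: growth measured after seven days incubation then overnight dye step; 0% = bacteria only wells and 100% = bacteria with antibiotic; twin plates without the antibiotic show which effects depend on it; some results filed as inactive read as strong as hits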
YopH inh = inhibitors of Yersinia enterocolitica YopH tyrosine phosphatase. inhibition, %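 (about 10 µM by stock and volumes)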. fluorescence Ex485/Em525. AID 898. 140,000 compounds, 0.16% hits;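 active means inhibition of 50% or more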;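 further: controls were vehicle for no effect and minimum signal wells for full effect; inactives centre near -20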
Arbovirus inh = arbovirus infection inhibition; 200,000 compounds, 0.37% hits; arbovirus infection cell-based antiviral screen; inhibition, % at 10 µM;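 active means inhibition from about 30%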;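 further: bluetongue infection of BSR cells; cell survival read as ATP light after 72 h; 0% = infected wells without compound and 100% = uninfected wells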
RecA intein inh = inhibitors of M. tuberculosis RecA intein splicing | P9WHJ3 | cell-free RecA intein splicing, fluorescence | inhibition, %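 (about 9 µM by stock and volumes)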 | 290,000 compounds, 0.75% hits | AID 2221; in the data active means inhibition above about 30%; inconclusive means no clear call, values can overlap the other calls;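 further: 0% = vehicle wells and 100% = reference inhibitor control wells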
Target sequence (P9WHJ3 whole entry, looked up): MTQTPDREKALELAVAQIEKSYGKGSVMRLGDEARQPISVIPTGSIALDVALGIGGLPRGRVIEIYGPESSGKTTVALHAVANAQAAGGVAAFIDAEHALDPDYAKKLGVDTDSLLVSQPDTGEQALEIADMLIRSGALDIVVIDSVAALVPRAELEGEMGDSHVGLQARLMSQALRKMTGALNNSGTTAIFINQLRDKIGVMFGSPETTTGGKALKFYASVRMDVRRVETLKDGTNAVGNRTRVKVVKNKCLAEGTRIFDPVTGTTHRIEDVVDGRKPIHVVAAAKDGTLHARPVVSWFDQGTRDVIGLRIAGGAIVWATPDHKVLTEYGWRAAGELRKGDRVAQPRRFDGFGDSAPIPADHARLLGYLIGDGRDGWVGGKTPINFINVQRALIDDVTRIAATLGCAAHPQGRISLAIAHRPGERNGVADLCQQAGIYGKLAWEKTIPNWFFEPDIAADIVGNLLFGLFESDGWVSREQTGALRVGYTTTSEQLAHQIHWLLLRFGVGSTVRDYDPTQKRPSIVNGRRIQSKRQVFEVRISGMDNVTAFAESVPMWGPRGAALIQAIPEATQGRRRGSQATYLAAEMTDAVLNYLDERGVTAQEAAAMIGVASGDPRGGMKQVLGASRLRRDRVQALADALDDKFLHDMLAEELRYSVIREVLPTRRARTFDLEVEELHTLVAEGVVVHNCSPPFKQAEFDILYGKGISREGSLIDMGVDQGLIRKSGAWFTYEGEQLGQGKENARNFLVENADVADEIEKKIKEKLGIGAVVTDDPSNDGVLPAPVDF
Arbovirus inh repeat = further read-out of Arbovirus inh, marked with its call; inhibition, %; measured here: 10K subset replicate screen; many hits read low in the repeat;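 first of two repeat runs on a subset; 0% = infected and 100% = uninfected wells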
* hit, by the source's call; ? = inconclusive; . = not tested or not shown. A portion of the library (hit frequency here may not be typical).

SMILES	Mtb H37Rv	Mtb bLac sens	YopH inh	Arbovirus inh	RecA intein inh	others
COc1ccc(S(=O)(=O)NC(N)=NCCc2ccc(OC)c(OC)c2)cc1	2.3%	-1.2	.	0.6	-1.2
Cc1[nH]c(C)c(S(=O)(=O)N2CCc3ccccc32)c1C(=O)N1CCCCC1	.	-2.6	.	.	-3.4
O=C(CN1C(=O)C(=O)N(Cc2ccccc2)C1=O)Nc1ccc(F)c(Cl)c1	2.8%	5.8	.	7.3	4.9
CCOC(=O)C1CN(S(=O)(=O)c2ccc(OC)cc2)c2cc(CC(=O)OC)ccc2O1 (stereo not given)	-7.5%	7.8	-22.6	-2.5	.
COc1cccc(C(=O)NCc2n[nH]c(=S)n2-c2cccc(C)c2)c1	4.4%	4.9	-12.9	-2.8	-4.7
CCN(CC(=O)Nc1ccc(NC(C)=O)cc1)CC(=O)Nc1ccc(F)c(Cl)c1	-0.6%	-12.5	.	8.3	0.1
CCOC(=O)c1c(NC(=O)c2ccc(C)cc2)sc2c1CC(C)(C)OC2	14.6%	-3.5	-6.0	-3.2	-1.3
CCc1cccc(CC)c1N(COC)C(=O)Cn1c(CO)nc2ccccc21	2.6%	-2.7	-9.2	1.1	0.8
CCOC(=O)C1(CCOC)CCN(Cc2cnc(-c3cccc(C)c3)nc2)CC1	3.3%	-1.6	.	7.3	0.1
COc1ccc(NC(=O)c2ccc(Cl)c(S(=O)(=O)NCC3CCCO3)c2)c(OC)c1 (stereo not given)	.	-1.8	.	.	17.3
COc1ccc(/C=N/NC(=O)c2nn(-c3ccc(Cl)cc3)c(=O)c3c(N)scc23)cc1	-2.7%	3.6	-14.1	-10.1	40.3*
CC(=O)c1c(C)[nH]c(C(=O)N2CCN(C(=O)c3ccco3)CC2)c1C	-10.2%	-5.6	-7.9	-4.8	1.3
C=CCN(CC=C)C(=S)NC(=O)Cc1cccc2ccccc12	-2.8%	24.4	.	56.0*	13.4
CCN(CC)C(=O)N1CCN(S(=O)(=O)c2ccc(C)c(C)c2)CC1	1.7%	0.8	-21.2	8.3	-1.5
CCOC(=O)C1=C(COC(=O)/C=C/c2ccc(OC)cc2OC)NC(=O)NC1C (stereo not given)	.	-1.8	.	.	1.1
COc1c(S(=O)(=O)n2nc(C)cc2C)ccc(Cl)c1Cl	0.7%	-5.7	1.7	-0.3	1.1	Arbovirus inh repeat=-1.6
O=C1CCN(Cc2nnnn2CC2CCCO2)c2ccccc2N1 (stereo not given)	-12.6%	-1.8	-61.2	5.0	1.6
CCOc1ccc(C2/C(=C(\O)c3ccc4c(c3)OCCO4)C(=O)C(=O)N2CCN2CCOCC2)cc1OC (stereo not given)	.	5.0	.	.	-3.0
O=C(O)c1ccc(CNC(=O)c2ccccc2NC(=O)c2ccc([N+](=O)[O-])cc2)cc1	1.1%	-1.1	.	-0.2	6.2
COc1ccc(NC(=O)/C(=C\c2cccnc2)NC(=O)c2cccs2)cc1	2.4%	-3.6	-11.9	0.8	-2.0
FC(F)(F)c1cc(-c2ccco2)nc(N2CCOCC2)n1	1.3%	3.6	-1.8	1.8	-1.2
Cc1cccc(NC(=O)C2CCCN(S(=O)(=O)c3cccc4cccnc34)C2)c1 (stereo not given)	3.0%	-1.8	-2.7	11.1	0.7	Arbovirus inh repeat=5.5
COc1cc(/C=C(\C#N)C(=O)c2c[nH]c3ccccc23)cc(OC)c1O	6.4%	-6.5	.	-0.4	91.9*
CC(=O)c1ccc(OCC(O)CN2C(C)CCCC2C)cc1 (stereo not given)	-3.4%	5.6	-22.6	0.3	-3.4	Arbovirus inh repeat=-3.4
c1ccc2c3c(c(CN4CCCCC4)cc2c1)COC3	2.8%	1.1	.	.	-0.8
CC(=O)C1C(c2ccccc2)c2c(noc2C)CC1(C)O (stereo not given)	-0.1%	-1.6	.	.	6.5
CCOC(=O)C1(Cc2cccc(OC)c2)CCCN(S(=O)(=O)c2cccnc2)C1 (stereo not given)	-6.3%	2.2	.	-6.7	-0.3
CC1CC/C(=N/Nc2ccccc2)C(=O)N1 (stereo not given)	8.4%	0.2	3.0	-17.5	1.3
Cc1noc(C)c1COc1cccc(C(=O)OCC(=O)NCCN2C(=O)CSC2=O)c1	-3.3%	-2.6	.	-3.6	1.6
CC(C)C[C@H](NC(=O)c1nc[nH]c1C(=O)NCc1ccc(CNC(=O)OC(C)(C)C)cc1)C(=O)OCc1ccccc1	.	-3.7	.	.	2.4
Cc1ccc2c(c1)N(CC(=O)NCCc1ccccc1)C(=O)c1cccnc1O2	.	-6.9	.	.	0.2
Cc1ccc(C2=NN=C(NC(=O)CSc3nc(C)cc(C)n3)SC2)cc1	-8.0%	-0.3	-8.8	-25.6	2.5
CCOC(=O)c1c(C)[nH]c(=S)c(C#N)c1-c1ccc(OC)cc1	-8.5%	?	-26.6	-4.1	-0.1
CC(=O)N1CC23C=CC(CC2CC12CCCCCC2)O3 (stereo not given)	-2.2%	-0.2	.	-0.1	-2.6
CNC(=O)CC1C(=O)N(c2ccc(Cl)cc2)C(=S)N1CCc1ccc(OC)c(OC)c1 (stereo not given)	5.5%	1.9	.	-12.1	-3.0
NNC(=O)CN1C(c2ccccc2)=Nc2ccc(Br)cc2C1c1ccccc1 (stereo not given)	-6.4%	8.4	.	-15.4	-0.2
COC(=O)c1c(NC(=O)Cc2cccs2)sc2c1CCCC2	2.3%	2.7	-41.4	1.9	4.3
CCN1CCN(CCCNC(=O)c2cc3sccc3n2CC)CC1	4.4%	-2.5	-33.8	4.3	-0.3	Arbovirus inh repeat=1.5
CCOC(=O)Cc1nc(-c2ccccc2)n[nH]1	3.4%	-8.6	.	12.8	1.8
O=C(NCC1CCCO1)C1C2C=CC3(CN(Cc4cccs4)C(=O)C13)O2 (stereo not given)	-5.6%	8.3	-2.3	8.8	-1.1
Cc1cc(C)c(CSc2nnnn2-c2ccc(C(=O)O)cc2)c(C)c1	.	-1.9	.	.	5.6
Cc1ccc(C2=NN(S(C)(=O)=O)C(c3ccc4nccnc4c3)C2)cc1 (stereo not given)	-4.0%	8.0	-26.2	3.6	-3.9
COc1ccccc1-c1cc(C(=O)Nc2sc3c(c2C#N)CCC(C)C3)c2ccccc2n1 (stereo not given)	10.1%	-0.8	-6.1	8.8	6.4
Cc1cc(=S)[nH]c2c(C)cccc12	-4.6%	-5.4	-26.4	5.2	-2.2
CC(O)CCC(=O)NCCNC(=O)CCC(C)O (stereo not given)	-6.2%	9.6	-20.9	6.0	-2.5
COCCNC(=S)N1C2CCC1CC(NC(=O)NC13CC4CC(CC(C4)C1)C3)C2 (stereo not given)	-3.4%	5.3	-22.1	9.0	2.2
O=C(NC(=S)Nc1nc(-c2ccccc2)cs1)c1cccs1	74.0%	9.2	-18.9	9.7	0.5
O=C(NNC(=O)c1cc(-c2ccc(Cl)cc2Cl)nc2ccccc12)Nc1ccccc1	?	74.7	-35.0	-20.1	0.5
Cc1c(Br)c([N+](=O)[O-])nn1CC(=O)Nc1ccc2nc3n(c(=O)c2c1)CCCC3	.	4.8	.	.	-6.1
Nn1c(-c2ccco2)n[nH]c1=S	2.6%	-6.4	-37.0	-4.9	0.8
O=C1OC(N2C(=O)CC[C@H]2C(=O)Nc2ccc(F)c(F)c2)c2ccccc21 (stereo not given in full)	.	-1.9	.	.	0.1
COc1ccc(C(=O)C2CCCN(C(=O)Cn3cncn3)C2)cc1OC (stereo not given)	.	0.4	.	.	0.6
c1ccc2sc(N3CCOCC3)nc2c1	2.9%	.	-19.8	7.6	-2.8
COC(=O)c1ccc(C2c3[nH]c4ccccc4c3C[C@H]3C(=O)N(C)CC(=O)N23)cc1 (stereo not given in full)	.	-8.2	.	.	-0.5
Cc1ccc(C)c(N(C(=O)Cc2cccs2)C(C(=O)NC2CCCC2)c2ccc(C)o2)c1 (stereo not given)	-12.2%	-5.4	-26.6	-3.6	-8.4
CCCN(CCC)S(=O)(=O)c1ccc(Cl)c(OC)c1	-0.8%	-0.8	.	0.1	1.1
CNC(=O)Cc1csc2ccc(C)cc12	-3.0%	-0.4	.	.	-0.7
Cc1ccnn1CC(=O)N/N=C/c1c[nH]c2ccccc12	-9.0%	-0.7	.	.	2.1
CCCCn1c(CN2C(=O)c3ccccc3C2=O)nc2ccccc2c1=O	-19.3%	-2.4	-30.3	-4.2	-2.5
CCOC(=O)c1cc(OC(=O)c2cccc([N+](=O)[O-])c2)n(-c2ccccc2)n1	2.7%	6.0	-11.9	0.5	.

Molecules from the list above with an aryl thioether with sulfur outside any ring, in the order listed:
SMILES	Mtb H37Rv	Mtb bLac sens	YopH inh	Arbovirus inh	RecA intein inh	others
Cc1ccc(C2=NN=C(NC(=O)CSc3nc(C)cc(C)n3)SC2)cc1	-8.0%	-0.3	-8.8	-25.6	2.5
Cc1cc(C)c(CSc2nnnn2-c2ccc(C(=O)O)cc2)c(C)c1	.	-1.9	.	.	5.6

(more compounds)
SMILES	Mtb H37Rv	Mtb bLac sens	YopH inh	Arbovirus inh	RecA intein inh	others
COc1ccc(N/N=C(\C#N)C(=N)N2CCOCC2)cc1	2.4%	1.1	.	-13.1	3.8
NC1=NC[C@H](Cc2ccccc2)N1CCCCC1CCCCC1	10µM*	-2.3	.	.	11.8
Nc1c(Cl)ncnc1NCc1ccccc1	.	4.0	.	.	0.3
Cc1sc2ncnc(SCC(=O)N3CCC(c4noc5ccc(F)cc45)CC3)c2c1C	.	-4.4	-16.9	0.7	-1.1
Cc1nn(Cc2ccc(Cl)cc2)c(C)c1NC(=O)c1cc(C(C)C)on1	.	2.9	.	.	-0.8
COc1ccc(-n2nc(C(=O)NCC(=O)NC(C)C)c3ccccc3c2=O)cc1Cl	.	1.6	.	.	0.5
O=C(CC1Nc2ccccc2NC1=O)c1ccccc1 (stereo not given)	4.9%	?	-40.4	0.8	-18.3
CC(C)CCNc1ncnc2c1nnn2Cc1ccccc1Cl	-1.1%	-14.1	-26.3	-6.8	-3.9
COc1ccc(C2Nc3ccccc3C(=O)N2c2ccc(F)cc2)cc1Cn1nnc2ccccc21 (stereo not given)	5.4%	1.0	-30.0	12.7	1.0
COc1ccc(S(=O)(=O)N2CCCOC2CNC(=O)C(=O)NCCc2ccco2)cc1C (stereo not given)	.	-5.8	.	.	0.9
CSc1ccc(CN2CCN(C(=O)COc3ccc(C)cc3)CC2)cc1	-4.0%	0.9	.	4.8	-0.4
Oc1ccc(/C=N/Nc2nn3cnnc3c3ccccc23)cc1	2.7%	-3.6	.	.	-5.6
O=C(Nc1nccs1)c1ncc(Cl)c(Cl)c1Cl	.	87.5	.	.	4.1
CCCOc1cc(C)c(S(=O)(=O)N2CCN(C)CC2)cc1C	-1.7%	-6.0	1.8	-13.4	-1.1
CCOc1cc(C2NN=C(c3ccccc3)S2)ccc1OCc1ccccc1Cl (stereo not given)	-4.3%	-3.5	-28.5	-8.0	1.8
CCOC(=O)C(=Cc1c[nH]c2ccc(S(=O)(=O)N(C)C)cc12)C(=O)OCC	1.5%	-12.1	.	.	2.6
CC(=O)N1c2ccc(S(=O)(=O)N3CCC(C(=O)Nc4cccc(C)n4)CC3)cc2CC1C (stereo not given)	.	-3.5	.	.	-0.5
O=C(CNC(=O)c1ccccc1F)N/N=C/c1cccs1	.	9.4	.	.	0.5
CCc1ccc(N(C(=O)CNC(=O)c2ccco2)C(C(=O)NCC2CCCO2)c2ccccc2)cc1 (stereo not given)	3.5%	-9.6	.	10.8	0.5
Cc1ccc(-n2nc3c(=O)n(CCCC(=O)NCc4ccccc4F)nc(C)c3c2C)cc1	.	-2.3	.	.	1.2
COc1ccc(-c2cc(C(=O)N3CCC4(CC3)OCCO4)c3ccccc3n2)cc1	.	-1.0	.	.	3.4
N#Cc1cc([N+](=O)[O-])ccc1Oc1cccc(/C=N/NC(=O)c2cccc(Cl)c2)c1	-1.2%	-1.9	-52.1	-24.5	0.9

Random excerpt: six entries already listed
SMILES	Mtb H37Rv	Mtb bLac sens	YopH inh	Arbovirus inh	RecA intein inh	others
COc1ccc(-c2cc(C(=O)N3CCC4(CC3)OCCO4)c3ccccc3n2)cc1	.	-1.0	.	.	3.4
CCOC(=O)C(=Cc1c[nH]c2ccc(S(=O)(=O)N(C)C)cc12)C(=O)OCC	1.5%	-12.1	.	.	2.6
O=C(CNC(=O)c1ccccc1F)N/N=C/c1cccs1	.	9.4	.	.	0.5
N#Cc1cc([N+](=O)[O-])ccc1Oc1cccc(/C=N/NC(=O)c2cccc(Cl)c2)c1	-1.2%	-1.9	-52.1	-24.5	0.9
CC(=O)N1c2ccc(S(=O)(=O)N3CCC(C(=O)Nc4cccc(C)n4)CC3)cc2CC1C (stereo not given)	.	-3.5	.	.	-0.5
CCc1ccc(N(C(=O)CNC(=O)c2ccco2)C(C(=O)NCC2CCCO2)c2ccccc2)cc1 (stereo not given)	3.5%	-9.6	.	10.8	0.5
